Screens (PubChem BioAssay)
Vaccinia stage – blocks a specific stage of Vaccinia orthopoxvirus infection. Vaccinia-infected cells, mCherry/Venus stage reporter fluorescence; active compounds read low; some inactives read as strong as hits. activity change (mCherry), % (test concentration not listed). hit rate 0.01% among 89,000. AID 1053133;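 active means mCherry past -33% and 40 or more points under the early reporter, replicates agreeing; inconclusive means past -33% without that gap or agreement; tested in A549 cells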;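 further: scaled between vehicle wells and reference inhibitor wells; 23 nL library stock went into each well; one replicate is shown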
Vaccinia stage Venus – recorded beside Vaccinia stage, whose call it bears; activity change (Venus), %; measured here: Venus reporter, other viral stage;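 negative = less Venus signal; first of two replicates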
Starred values were filed as active, the others as inactive; ? = inconclusive; . = no result given. Only part of the results is shown. The share of hits here may be higher or lower than overall.

SMILES	Vaccinia stage	Vaccinia stage Venus
CCC(=O)Nc1ccc2c(c1)C(=O)N(C)[C@@H]1CC[C@@H](CC(=O)N[C@H](C)c3ccccc3)O[C@@H]1CO2	7.6	14.1
C[C@@H]1CN([C@H](C)CO)C(=O)c2cc(NS(=O)(=O)c3ccc(Cl)cc3)ccc2O[C@@H]1CN(C)Cc1ccc(Cl)c(Cl)c1	?	.
COc1ccccc1-c1ccccc1[C@H]1[C@@H](C#N)N(C(=O)C2CCC2)[C@H]1CO	-1.2	-5.1
O=C(C[C@@H]1C[C@H]2c3cc(NC(=O)Nc4ccccc4F)ccc3O[C@H]2[C@@H](CO)O1)NCc1ccccn1	0.5	1.8
C[C@H](CO)N1C[C@H](C)[C@H](CN(C)Cc2ccc(C(F)(F)F)cc2)Oc2ccc(NC(=O)Cc3ccccc3)cc2CC1=O	-31.9	-27.0
CCC(=O)NC[C@@H]1[C@H](c2ccccc2)[C@@H](CO)N1C(=O)C1CCC1	19.1	17.4
CO[C@H]1CN(C)C(=O)c2cc(NS(=O)(=O)c3cccc(Cl)c3)ccc2OC[C@@H](C)NC[C@H]1C	2.3	3.7
CC=Cc1ccc2n(c1=O)C[C@@H]1[C@@H](CO)[C@H](C(=O)NC3Cc4ccccc4C3)[C@H]2N1C(C)=O (mixture of isomers)	17.0	5.4
CO[C@H]1CN(C)C(=O)c2ccc(NC(=O)C3CCCCC3)cc2OC[C@H](C)N(C(=O)c2ccccc2)C[C@@H]1C	10.6	4.5
CCC(=O)N1CC[C@@H]2[C@@H](CO)N(C)c3ccc(-c4ccc(F)cc4)cc3[C@@H]21	-30.4	-22.3
C/C=C/c1ccc([C@H]2[C@H](CO)N3CCCCN(C(=O)Nc4ccc(OC)cc4)C[C@@H]23)cc1	-28.6	-25.1
COc1ccc2c3c(n(C)c2c1)[C@@H](CO)N(C)CC31CCN(C(=O)NC(C)C)CC1	8.2	5.1
C[C@@H]1CN([C@H](C)CO)C(=O)c2c(c3ccccc3n2C)-c2ccccc2CO[C@@H]1CN(C)S(=O)(=O)CC(F)(F)F	-3.6	-4.5
C[C@@H]1CN([C@H](C)CO)S(=O)(=O)c2ccc(-c3cccc(C#N)c3)cc2O[C@@H]1CN(C)C(=O)c1ccncc1	14.8	1.6
COc1ccc(S(=O)(=O)N(C)C[C@H]2Oc3ccc(NC(=O)Nc4ccc5c(c4)OCO5)cc3CC(=O)N([C@H](C)CO)C[C@@H]2C)cc1	6.2	19.1
CC(=O)n1cc([C@@H]2C=C(C(=O)N3CCCCCCC3)O[C@H](OCCCCO)C2)c2ccccc21	9.7	18.2
Cc1noc(C)c1NC(=O)N(C)C[C@H]1Oc2c(NC(=O)c3ccncc3)cccc2C(=O)N([C@H](C)CO)C[C@H]1C	6.1	1.7
C[C@H](CO)N1C[C@H](C)[C@H](CN(C)Cc2ccc(C(=O)Nc3ccccc3N)cc2)Oc2c(NS(C)(=O)=O)cccc2C1=O	25.6	8.4
CN1CCN(C(=O)[C@@H]2[C@@H](CO)[C@@H]3Cn4c(ccc(-c5cncnc5)c4=O)[C@@H]3N2CC2CCCC2)CC1	11.5	-2.1
O=C(Nc1ccccc1)N1CCCCN2[C@@H](CO)[C@H](c3ccc(C#Cc4ccccc4)cc3)[C@@H]2C1	?	.
COc1ccc(S(=O)(=O)Nc2ccc3c(c2)C(=O)N([C@@H](C)CO)C[C@@H](C)[C@H](CN(C)Cc2ccc(C(=O)O)cc2)O3)cc1	24.3	17.2
Cc1noc(C)c1S(=O)(=O)Nc1ccc2c(c1)CC(=O)N([C@@H](C)CO)C[C@@H](C)[C@H](CN(C)CC1CC1)O2	1.0	5.2
C[C@@H]1CCCCO[C@@H](CN(C)C)[C@H](C)CN([C@@H](C)CO)C(=O)c2cc(NC(=O)CCC(F)(F)F)ccc2O1	12.5	18.7
C[C@H](CO)N1C[C@H](C)[C@H](CN(C)C(=O)Nc2ccc(C(C)(C)C)cc2)OCc2cn(nn2)CCCC1=O	11.6	10.7
CO[C@H]1CN(C)C(=O)c2cc(NS(=O)(=O)c3ccccc3)ccc2OC[C@H](C)N(Cc2ccccn2)C[C@H]1C	-3.6	-9.3

Going on with the list.
SMILES	Vaccinia stage	Vaccinia stage Venus
Cc1noc(C)c1NC(=O)Nc1ccc2c(c1)C(=O)N([C@H](C)CO)C[C@H](C)[C@H](CN(C)C(=O)NC(C)C)O2	9.4	8.8
C[C@@H]1CCCCO[C@@H](CN(C)Cc2ccc3c(c2)OCO3)[C@H](C)CN([C@@H](C)CO)C(=O)c2cc(NS(C)(=O)=O)ccc2O1	-0.7	5.9
CCCNC(=O)C[C@@H]1C[C@@H]2c3cc(NC(=O)Nc4ccc(OC)cc4)ccc3O[C@@H]2[C@@H](CO)O1	5.0	8.3
C[C@H](CO)N1C[C@H](C)[C@@H](CN(C)Cc2ccc(Oc3ccccc3)cc2)Oc2ccc(NS(=O)(=O)c3ccc(Cl)cc3)cc2CC1=O	?	.
O=C(N[C@@H]1CC[C@@H](CCNC(=O)C2CC2)O[C@@H]1CO)c1ccccn1	4.9	2.2
Cc1noc(C)c1NC(=O)N(C)C[C@@H]1Oc2ccc(NS(=O)(=O)c3cn(C)cn3)cc2C(=O)N([C@@H](C)CO)C[C@@H]1C	-6.5	-10.5
C[C@H](CO)N1C[C@H](C)[C@@H](CN(C)C(=O)Cc2ccccc2)Oc2cc(-c3ccccc3)ccc2S1(=O)=O	?	.
O=C(c1cccnc1)N1C[C@H]2[C@@H](c3ccccc31)[C@@H](CO)N2CC1CCCCC1	0.2	4.0
C[C@@H]1CN([C@@H](C)CO)C(=O)c2cc(Br)cnc2O[C@H]1CN(C)CC1CCCC1	14.4	12.1
C[C@@H]1CN([C@@H](C)CO)C(=O)c2cc(NC(=O)CCN3CCOCC3)ccc2O[C@H]1CN(C)Cc1ccc2c(c1)OCO2	9.7	9.8
O=C(CN1CCOCC1)N[C@H]1CC[C@@H](CCNC(=O)C2CCCCC2)O[C@@H]1CO	6.8	8.2
CO[C@@H]1CN(C)C(=O)c2ccc(NC(=O)C3CCCCC3)cc2OC[C@@H](C)N(Cc2cccnc2)C[C@H]1C	7.0	8.1
O=C(C[C@H]1C[C@H]2c3cc(NC(=O)c4ccc5c(c4)OCO5)ccc3O[C@H]2[C@@H](CO)O1)NCc1cccc(F)c1	1.0	-5.7
C[C@H](CO)N1C[C@H](C)[C@H](CN(C)C(=O)Nc2ccc3c(c2)OCO3)Oc2ccc(NC(=O)Cn3cnnn3)cc2C1=O	31.0	8.1
C[C@H]1CN([C@@H](C)CO)C(=O)c2cc(NC(=O)C3CC3)ccc2O[C@@H]1CN(C)C	8.2	-5.8
O=C(Nc1ccc(F)cc1)N1CC(=O)N2[C@H](CO)[C@H](c3ccc(C4=CCCC4)cc3)[C@H]2C1	-14.8	-4.4
C[C@@H]1CN([C@@H](C)CO)C(=O)c2cc(NC(=O)Cn3cnnn3)ccc2O[C@H]1CN(C)CC1CCCCC1	4.1	7.4
C[C@@H]1CN([C@@H](C)CO)S(=O)(=O)c2ccc(C#CCN(C)C)cc2O[C@H]1CN(C)C(=O)c1ccccc1F	21.2	7.0
Cc1ccc(S(=O)(=O)Nc2ccc3c(c2)C(=O)N([C@H](C)CO)C[C@H](C)[C@@H](CN(C)C(=O)CCCN(C)C)OCCCC[C@H](C)O3)cc1	1.6	-6.5
CO[C@@H]1CC[C@H]2CCOc3c(C#N)cccc3C(=O)N(C)C[C@H](c3ccccc3)CC(=O)N(C)C[C@H]1O2	7.2	-2.1
CCCC#Cc1ccc2c(c1)O[C@H](CN(C)C(=O)Nc1ccccc1F)[C@H](C)CN([C@@H](C)CO)S2(=O)=O	?	.
C[C@@H]1CCCCO[C@H](CN(C)S(=O)(=O)c2ccc(F)cc2)[C@@H](C)CN([C@@H](C)CO)C(=O)c2cc(NC(=O)Nc3ccc(C(F)(F)F)cc3)ccc2O1	19.8	19.4
O=C(Cc1cccnc1)N1CC(=O)N2[C@H](CO)[C@H](c3ccc(C#CC4CCCC4)cc3)[C@H]2C1	?	.
C[C@H]1CN([C@@H](C)CO)C(=O)CCCn2cc(nn2)CO[C@@H]1CN(C)Cc1cccnc1	8.7	9.6
Cc1ccc(NC(=O)Nc2ccc3c(c2)C(=O)N(C)[C@H]2CC[C@@H](CC(=O)O)O[C@H]2CO3)cc1	1.7	6.7

Continuation.
SMILES	Vaccinia stage	Vaccinia stage Venus
C[C@@H]1CN([C@@H](C)CO)C(=O)c2cccc(NC(=O)C3CCCCC3)c2O[C@H]1CN(C)Cc1ccncc1	-4.1	-4.3
Cc1ccc(S(=O)(=O)N(C)C[C@@H]2Oc3ccc(NC(=O)Nc4ccc(C(F)(F)F)cc4)cc3CC(=O)N([C@@H](C)CO)C[C@H]2C)cc1	?	.
COc1ccccc1C(=O)Nc1ccc2c(c1)OC[C@H](C)N(CC1CC1)C[C@H](C)[C@@H](OC)CN(C)C2=O	-4.2	-3.3
CN(C)C(=O)c1cccc(-c2ccc([C@H]3[C@H](CO)N4CCCCN(S(C)(=O)=O)C[C@@H]34)cc2)c1	23.3	1.9
C[C@@H]1CN([C@H](C)CO)C(=O)c2cc(-c3cccc(F)c3)cnc2O[C@@H]1CN(C)C(=O)C1CCCCC1	-6.5	2.2
C[C@H](CO)N1C[C@H](C)[C@H](CN(C)C(=O)CCC(F)(F)F)OCCCC[C@H](C)Oc2ccc(NC(=O)C3CCCCC3)cc2C1=O	-18.3	-12.8
C[C@@H]1CN([C@H](C)CO)C(=O)c2cc(-c3ccccc3)cnc2O[C@@H]1CN(C)C	0.3	-1.8
Cc1noc(C)c1S(=O)(=O)N(C)C[C@@H]1Oc2ccc(NS(=O)(=O)c3cccs3)cc2CC(=O)N([C@@H](C)CO)C[C@@H]1C	10.8	13.5
COc1cccc(C#Cc2ccc3c(c2)[C@H]2[C@H](CCN2C(=O)Cc2ccccc2)[C@H](CO)N3)c1	3.9	10.7
C[C@H]1CN([C@@H](C)CO)S(=O)(=O)c2ccc(C3=CCCCC3)cc2O[C@@H]1CN(C)C(=O)c1ccccc1	?	.
CS(=O)(=O)N1CC2(C1)[C@H](c1ccccc1)[C@H](CO)N2CCC(F)(F)F	8.3	1.8
CNC[C@H]1Oc2c(NS(=O)(=O)c3ccc(OC)cc3)cccc2C(=O)N([C@H](C)CO)C[C@@H]1C	20.8	20.8
CO[C@H]1CN(C)C(=O)c2ccc(NC(=O)c3cccc(F)c3)cc2OC[C@@H](C)N(C(C)=O)C[C@H]1C	12.5	3.5
COc1ccc2c3c([nH]c2c1)[C@H](CO)N(Cc1nccs1)CC31CCN(C(=O)C2CCOCC2)CC1	21.0	6.9
C[C@@H]1CN([C@H](C)CO)S(=O)(=O)c2ccc(Br)cc2O[C@@H]1CN(C)S(=O)(=O)c1ccc(F)cc1	-34.3	-27.2
C[C@@H]1CCCCO[C@@H](CN(C)Cc2ccccc2)[C@H](C)CN([C@@H](C)CO)C(=O)c2cc(NC(=O)Cc3ccccc3)ccc2O1	?	.
C[C@@H]1CN([C@H](C)CO)C(=O)c2cccc(NC(=O)C3CCCCC3)c2O[C@@H]1CN(C)C(=O)Nc1ccc2c(c1)OCO2	-1.8	-7.5
Cc1ccc(-c2ccc([C@H]3[C@H](CO)N4C(=O)CN(C(=O)c5ccncc5)C[C@@H]34)cc2)cc1	1.4	3.2
COc1ccccc1-c1cn(CC[C@@H]2CC[C@H](NC(=O)C3CCC3)[C@@H](CO)O2)nn1	-4.8	4.6
C[C@@H]1CN([C@@H](C)CO)C(=O)c2cc(NC(=O)Cc3cn(C)c4ccccc34)ccc2O[C@H]1CN(C)S(=O)(=O)c1ccc(F)cc1	-8.0	-4.6
COCC(=O)Nc1ccc2c(c1)C(=O)N(C)C[C@@H](OC)[C@H](C)CN(CC1CC1)[C@@H](C)CO2	-3.3	5.9
Cc1noc(C)c1S(=O)(=O)Nc1ccc2c(c1)C(=O)N([C@H](C)CO)C[C@@H](C)[C@@H](CN(C)Cc1ccncc1)OCCCC[C@H](C)O2	21.5	19.3
CC(C)(O)c1cn([C@@H]2C[C@@H]3O[C@@H](CO)CC[C@@H]3O[C@@H]2CCc2ccc(-c3cccnc3)cc2)nn1	24.0	18.5
O=C(C[C@@H]1CC[C@@H](NC(=O)C2CCOCC2)[C@@H](CO)O1)NCc1ccccc1Cl	-7.7	-5.5
CN(C)c1ccc2c(c1)[C@H]1C[C@@H](CC(=O)NCc3ccncc3)O[C@@H](CO)[C@H]1O2	-3.1	5.0

Ordered by molar mass (rising): 10 of the compounds above
SMILES	Vaccinia stage	Vaccinia stage Venus
CS(=O)(=O)N1CC2(C1)[C@H](c1ccccc1)[C@H](CO)N2CCC(F)(F)F	8.3	1.8
CN(C)c1ccc2c(c1)[C@H]1C[C@@H](CC(=O)NCc3ccncc3)O[C@@H](CO)[C@H]1O2	-3.1	5.0
Cc1ccc(-c2ccc([C@H]3[C@H](CO)N4C(=O)CN(C(=O)c5ccncc5)C[C@@H]34)cc2)cc1	1.4	3.2
CN(C)C(=O)c1cccc(-c2ccc([C@H]3[C@H](CO)N4CCCCN(S(C)(=O)=O)C[C@@H]34)cc2)c1	23.3	1.9
CC(C)(O)c1cn([C@@H]2C[C@@H]3O[C@@H](CO)CC[C@@H]3O[C@@H]2CCc2ccc(-c3cccnc3)cc2)nn1	24.0	18.5
C[C@@H]1CN([C@@H](C)CO)C(=O)c2cccc(NC(=O)C3CCCCC3)c2O[C@H]1CN(C)Cc1ccncc1	-4.1	-4.3
COc1ccccc1C(=O)Nc1ccc2c(c1)OC[C@H](C)N(CC1CC1)C[C@H](C)[C@@H](OC)CN(C)C2=O	-4.2	-3.3
COc1ccc2c3c([nH]c2c1)[C@H](CO)N(Cc1nccs1)CC31CCN(C(=O)C2CCOCC2)CC1	21.0	6.9
C[C@H]1CN([C@@H](C)CO)S(=O)(=O)c2ccc(C3=CCCCC3)cc2O[C@@H]1CN(C)C(=O)c1ccccc1	?	.
C[C@@H]1CN([C@@H](C)CO)C(=O)c2cc(NC(=O)Cc3cn(C)c4ccccc34)ccc2O[C@H]1CN(C)S(=O)(=O)c1ccc(F)cc1	-8.0	-4.6
